VDR inh – inhibitors of human vitamin D receptor; P11473; VDR-SRC2-3 peptide fluorescence polarization, 2 h; Potency, µM, without a hit: max response, negative = inhibition, most hits filed as inhibitors; 400,000 tested, 0.93% active; AID 504847; active means well fitted inhibition curve with a large enough effect; inconclusive means small, poorly fitted or top-dose-only effect, or another doubt; inactive means no such curve, though single readings can be large or run the other way; further: series mostly up to about 120 µM
Target sequence (P11473 whole entry, looked up): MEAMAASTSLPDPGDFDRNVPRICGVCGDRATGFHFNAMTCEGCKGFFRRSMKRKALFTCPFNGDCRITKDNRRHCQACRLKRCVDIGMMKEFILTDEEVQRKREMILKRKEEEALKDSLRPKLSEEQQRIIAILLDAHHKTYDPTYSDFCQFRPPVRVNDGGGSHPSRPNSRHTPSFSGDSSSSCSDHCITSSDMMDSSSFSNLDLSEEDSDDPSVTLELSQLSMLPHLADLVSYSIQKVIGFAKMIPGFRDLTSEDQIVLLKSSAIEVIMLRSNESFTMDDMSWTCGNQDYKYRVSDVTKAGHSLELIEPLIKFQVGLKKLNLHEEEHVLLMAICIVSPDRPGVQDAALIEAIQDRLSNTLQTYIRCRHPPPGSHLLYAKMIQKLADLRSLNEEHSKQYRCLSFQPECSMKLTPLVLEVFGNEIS
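Signal is fluorescence polarization, reporting how far test compounds block the interaction of VDR with the SRC2-3 coregulator peptide after a 2 h room-temperature incubation.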
Starred values were filed as active, the others as inactive; ? = inconclusive; & = joins results of further samples; [ ] = dose if it differs, or a comment. On the % scale 0 is the no-effect control and ±100 the full control effect; potency means the concentration at half of the fitted maximal effect.

SMILES	VDR inh
CN(C)S(=O)(=O)c1cccc(NC(=O)Cn2cnc3ccccc3c2=O)c1	-1%
CCOC(=O)c1sc2nc(NC(=O)C3CC3)sc2c1C	-5%
Cc1cccc(N2C(=O)C(Cc3ccccc3)NC2=S)c1 (centres undefined)	-10%
Cn1cnnc1SC(C(=O)Nc1cc(Cl)cc(Cl)c1)c1ccccc1 (centres undefined)	-5%
COc1cccc(CNC(=O)CCC2CCCN(C(=O)CCc3c(C)noc3C)C2)c1 (centres undefined)	17%
Cc1cn(-c2cccnc2)c(C)c1CNC[C@H]1O[C@@H](n2cnc3c(N)ncnc32)[C@H](O)[C@@H]1O	-28%
COc1ccc(C(CNC(=O)c2ccc(C)c(S(=O)(=O)Nc3ccccc3OC)c2)N2CCCC2)cc1 (centres undefined)	19%
O=C(NC1CCN(Cc2ccccc2)CC1)c1ccc(Cn2c(=O)c3ccccc3n(Cc3ccc(Cl)cc3)c2=O)cc1	1%
CC(=O)N1N=C(c2ccccc2)OC1c1cccnc1 (centres undefined)	14%
CCCc1cc(=O)[nH]c(Nc2cc(OC)ccc2OC)n1	-3%
CC(C)c1nc(SCC(=O)c2ccccc2)c2c(=O)n(C)c(=O)n(C)c2n1	-3%
CCNS(=O)(=O)c1ccc(OCCNS(C)(=O)=O)cc1	30%
COCc1c(C(=O)N/N=C(/C)c2ccccc2)nnn1-c1nonc1N	3%
CC(OC(=O)c1cc2sccc2n1C)C(=O)NCC1CCCO1 (centres undefined)	33%[activator]
O=S(=O)(NCCc1csc(-c2ccccc2)n1)c1ccc2c(c1)OCCO2	1%
COc1cc(C(=O)Nc2nnc(CC(C)(C)C)s2)cc(OC)c1OC	8%
CC(=O)c1cccc(NC(=O)N2CCC(CN3CCCCC3)CC2)c1	6%
O=C(NNC1=Nc2ccccc2SC1)c1ccc(F)cc1	10%
CCOC(=O)c1c(CN2CCOCC2)n(-c2ccccc2)c2ccc(O)cc12	-4%
Cc1cc(NC(=O)c2c(Br)cnn2C)no1	-8%
O=C(COc1ccc(Br)cc1Br)Nc1ccc(S(=O)(=O)Nc2ncccn2)cc1	2%
COc1cccc(C(O)c2nc3ccccc3n2C(C)C)c1 (centres undefined)	15%
Nc1nc(SCC(=O)Nc2ccc(Cl)cc2)[nH]c(=O)c1-c1ccccc1	-8%
CCOCCCNC(=O)c1ccc2c(c1)OCO2	0%
O=[N+]([O-])c1ccccc1S(=O)(=O)c1ccccc1	-12%
O=c1ccc(/C=C/c2ccccc2)nn1Cc1ccc(Cl)cc1Cl	-6%
CC(C)(C(=O)N[C@H](CO)c1ccccc1)C(=O)N[C@H](CO)c1ccccc1	-11%
CCOC(=O)CSc1nnc(CCc2nc3ccccc3[nH]2)n1C	-15%
CCCn1c(=O)c(C(=O)Nc2cccc(C)c2)c(O)c2ccccc21	-7%
CCCOC(=O)C1=C(C)N(C)C(=O)NC1c1cc2c(cc1Br)OCO2 (centres undefined)	-16%
Cc1ccc(CNC(=O)CSc2nc3ccccc3c(=O)n2CC2CCCO2)cc1 (centres undefined)	-8%
CCCCN1C(=S)SC(C)(C)C1/[N+]([O-])=C/c1cccnc1 (centres undefined)	-2%
CNC(=O)c1nnc(Cc2ccc(Cl)cc2)o1	-14%
Cc1n[nH]c(=O)n1-c1ccc(Oc2ccccc2)cc1	-1%
COc1cc(NC(=O)COC(=O)c2cnccn2)c(C)cc1[N+](=O)[O-]	8%
COc1ccc(C2=C(C)C(=NCCCN3CCN(c4cc(Cl)ccc4C)CC3)NS2(=O)=O)cc1	18%
COc1ccccc1OCCCOc1c(Cl)cc(C)cc1Cl	-3%
CCC(c1nnnn1Cc1ccco1)N(Cc1ccccc1OC)Cc1cc2cc(C)ccc2[nH]c1=O (centres undefined)	-3%
CCOc1cc(C=O)cc(N=Nc2cccc([N+](=O)[O-])c2)c1O	6%
O=C(Nc1ccc(Cl)c(S(=O)(=O)N2CCOCC2)c1)c1ccc2c(c1)OCCO2	23%
COC1OCC(O)C(OC(=O)c2ccccc2)C1OC(=O)c1ccccc1 (centres undefined)	9%
CCCn1c(CCC(=O)Nc2ccccc2Cc2ccccc2)nc2cc(S(=O)(=O)N3CCOCC3)ccc21	5%
CCC(C)(C)n1nnnc1C(c1ccc(OC)c(OC)c1)N1CCN(c2ccc(OC)cc2)CC1 (centres undefined)	4%
CCCC(=O)Nc1ccc2nc(SCC(=O)Nc3ccc(N4CCOCC4)c(Cl)c3)sc2c1	14%
CS(=O)(=O)Cc1ccc(C(=O)NC(c2ccccc2)c2ccccc2)cc1	10%
CC(C)OC(=O)CC12CN3CC(CC(=O)OC(C)C)(CN(C1)C(=O)c1ccccc1C3=O)C2=O	-12%
CCCCc1cc(C(=O)Cc2ccccn2)c(O)cc1O	6%
CN(C)/C=C(\C=O)c1cccc(Cl)c1	0%
CC(C)CN(CCCNC(=O)CN1C(=O)COc2ccc(S(=O)(=O)N3CCCCCC3)cc21)CC(C)C	-16%&0%
CCOC(=O)c1c(S(=O)(=O)NCCc2ccc(OC)c(OC)c2)c(C)n(C)c1C	11%

Random excerpt: three records from the list.
SMILES	VDR inh
CCCn1c(CCC(=O)Nc2ccccc2Cc2ccccc2)nc2cc(S(=O)(=O)N3CCOCC3)ccc21	5%
CC(C)CN(CCCNC(=O)CN1C(=O)COc2ccc(S(=O)(=O)N3CCCCCC3)cc21)CC(C)C	-16%&0%
COC1OCC(O)C(OC(=O)c2ccccc2)C1OC(=O)c1ccccc1 (centres undefined)	9%

(list continues)
SMILES	VDR inh
CN1C(=O)c2ccc(Oc3ccccc3)cc2C1=O	-9%
Cc1ccc(/C=N/NC(=O)c2ccccc2OCc2cccc(Br)c2)o1	-5%
CCn1c(=O)cc(SCC(=O)Nc2ccc(OC)c(OC)c2)c2ccccc21	-2%
O=C(NN1C(=O)c2ccccc2C1=O)c1ccncc1	7%
CC(=O)N1CCC2(CC1)CC(=O)c1cc(OCC(=O)N3CCCC3)ccc1O2	15%
O=C(CCC(=O)N/N=C/c1c[nH]c2ccccc12)NCc1ccccc1	-15%
O=C(Nc1nc2nc(-c3ccccc3)cc(-c3ccccc3)n2n1)c1ccco1	11%
CCn1c(NCc2ccc(OC)cc2)nc2ccccc21	-12%&10%
Cc1ccc(C2CC(=O)Oc3cc(C)c(Cl)c(C)c32)cc1 (centres undefined)	-13%
N#Cc1ccc(NC(=O)CSc2cn[nH]n2)cc1	9%
CCC(CO)n1c(SCc2cc(=O)oc3cc(C)ccc23)nc2ccccc2c1=O (centres undefined)	-7%
CC(=O)OC(C(=O)NC1CCCCC1)c1ccc(Cl)c(Cl)c1 (centres undefined)	?
CC1CN(c2cc(=O)n(-c3ccc(Cl)cc3)c(=O)[nH]2)CC(C)O1 (centres undefined)	-24%
O=c1[nH]c(-c2ccccc2Cl)nc2c1sc(=S)n2-c1ccccc1	13%
Cc1cccc(CN(C)C)c1CC(O)(c1ccccc1)c1ccccc1	-12%
C/C=C/COc1nc2c(c(=O)n(C)c(=O)n2C)n1C	-15%
COc1ccc(OC)c(S(=O)(=O)Nc2c(F)cccc2F)c1	16%
Cc1cc(C)c(S(=O)(=O)NCCc2cc3cc(C)c(C)cc3[nH]c2=O)c(C)c1	-4%
O=C(CNS(=O)(=O)c1ccccc1)N1CCCC1	-14%
Cc1ccc(CNC(=O)CCn2ccc3cc(S(=O)(=O)N4CCCC4)ccc32)cc1	7%&4%
CCC(NC(=O)c1cccc(Cn2cc([N+](=O)[O-])cn2)c1)c1ccc(C(C)C)cc1 (centres undefined)	1%
O=C(NC1=NCCS1)c1cccc(NC(=O)c2ccco2)c1	-9%
Cc1ccc(C)c(-c2cc(C(=O)N/N=C/c3cccnc3)c3ccccc3n2)c1	-4%
O=S(=O)(NCc1ccc(F)cc1)c1ccc(N2CCCCS2(=O)=O)cc1	0%
CCCCCn1c(=O)[nH]c2cc(C(=O)N3CCN(c4cccc(C)c4)C(C)C3)ccc2c1=O (centres undefined)	-12%
Cc1ccc(C2(c3ccccc3)NC(=O)N(CC(=O)NC3CCCCC3)C2=O)cc1C (centres undefined)	6%
COc1ccc(-n2c(SCC(=O)Nc3ccccc3)nnc2-c2ccc(NS(=O)(=O)c3ccc(C)cc3)cc2)cc1	-14%
c1ccc(NC2=NCCN2CC2CCCC2)cc1	4%
CN(C)c1ccc(CNC(=O)CCS(=O)(=O)c2ccc3c(c2)n(C)c(=O)c(=O)n3C)cc1	1%
CCN(CC)S(=O)(=O)c1ccc2[nH]cc(C(=O)NC3CC3)c(=O)c2c1	-10%
CCC(Sc1nc2c(sc3ccccc32)c(=O)n1CCc1ccccc1)C(=O)N(CC)CC (centres undefined)	11%
COCCN(CCOC)Cc1c(C)[nH]c2c(C)c(C)ccc2c1=O	-8%
CCN(CC)c1ccc(NC(=O)CN2CCN(c3ccccc3OC)CC2)cc1	10%
CCOC(=O)c1c[nH]c2ccc3ccccc3c2c1=O	-9%
Cc1ccc(-n2c(COc3cccc(C)c3)n[nH]c2=S)cc1	-8%
Cc1cc(C)n(CC(=O)N/N=C/c2cccs2)n1	-2%
O=S(=O)(c1ccc(Br)cc1Cl)N1CCN(CCO)CC1	-16%
CCOC(=O)C1(CCOc2ccccc2)CCN(Cc2ccc(OCCO)cc2)CC1	-12%
CCC(CC)NC(=O)Cn1c(C(C)NC(C)=O)nc2ccccc21 (centres undefined)	13%
O=C(NC1CCCC1)c1ccc(CNc2c(N3CCOCC3)c(=O)c2=O)cc1	-11%
O=C(NC1CCCC1)c1cc(-c2ccccc2Cl)on1	-1%
Cc1ccn(CCC(=O)N2CCc3ccccc32)n1	6%
COC(=O)c1ccccc1NC(=O)CCS(=O)(=O)c1nc(-c2ccc3c(c2)OCO3)cc(C(F)(F)F)n1	?
Cc1cc(-c2ccco2)c(C#N)c2nc3ccccc3n12	-1%
Cc1ccc(C(=O)NNC(=O)c2ccccc2O)cc1S(=O)(=O)N1CCCCC1	-10%
O=C(O)c1cc(CN2CCOCC2)oc1-c1ccccc1	6%
COC(=O)c1cc2sc(Cl)cc2n1CC(=O)NCCC(C)C	10%
Cc1ccc(C)c(NC(=O)C(CC(=O)O)Cc2ccccc2)c1 (centres undefined)	5%
CCS(=O)(=O)NC(C)C(c1cccs1)N1CCN(c2ccc(F)cc2)CC1 (centres undefined)	1%
Cc1ccc(-c2nc3ncccc3o2)cc1NC(=O)c1ccc([N+](=O)[O-])o1	5%
(continued)
SMILES	VDR inh
COC(=O)c1sc2nc3c(c(-c4cccs4)c2c1N)CCCC3	16%
Clc1cccc(-n2ncc3c(NC4CCCCCC4)ncnc32)c1	-1%
COC(=O)CCn1nc(-c2ccc(C)cc2)c2ccccc2c1=O	-7%
O=C(NC1CC1)c1cccc(NC(=O)C2CCN(S(=O)(=O)c3cccc(C(F)(F)F)c3)CC2)c1	12%
O=c1c2ccsc2ncn1Cc1cccc(C(F)(F)F)c1	?
COc1ccc(-c2csc(/C(C#N)=C/Nc3cc4oc5ccccc5c4cc3OC)n2)cc1	-5%
C#CCOCCOCCOCCNc1nc(N2CCN(C(=O)CCCCCCCCCCNC(=O)[C@H](CCCCN)n3cc(C)nn3)CC2)nc(N2CCN(C(=O)CCCCCCCCCCNC(=O)[C@H](CCCN=C(N)N)n3cc(C[C@@H](C)CC)nn3)CC2)n1	38%[activator]
COc1ccc(C(=O)O)cc1S(=O)(=O)Nc1cccc(C(F)(F)F)c1	1%
O=C(COC(=O)CSc1ccc([N+](=O)[O-])cc1)NCc1ccco1	-29%
CCC(Oc1ccccc1)C(=O)Nc1ccc2oc(-c3ccc(OC)cc3)nc2c1 (centres undefined)	4%

Some of these compounds in order of the VDR inh value, ascending.
SMILES	VDR inh
O=C(COC(=O)CSc1ccc([N+](=O)[O-])cc1)NCc1ccco1	-29%
COc1ccc(-c2csc(/C(C#N)=C/Nc3cc4oc5ccccc5c4cc3OC)n2)cc1	-5%
Clc1cccc(-n2ncc3c(NC4CCCCCC4)ncnc32)c1	-1%
COc1ccc(C(=O)O)cc1S(=O)(=O)Nc1cccc(C(F)(F)F)c1	1%
CCC(Oc1ccccc1)C(=O)Nc1ccc2oc(-c3ccc(OC)cc3)nc2c1 (centres undefined)	4%
O=C(NC1CC1)c1cccc(NC(=O)C2CCN(S(=O)(=O)c3cccc(C(F)(F)F)c3)CC2)c1	12%
COC(=O)c1sc2nc3c(c(-c4cccs4)c2c1N)CCCC3	16%

New compounds follow:
SMILES	VDR inh
CCc1c(C)nc(SCC(=O)N2CCCCC2CC)[nH]c1=O (centres undefined)	?
COc1ccc(CNC(=O)c2ccc(CS(=O)(=O)c3ccc(Br)cc3)o2)cc1	-20%&8%
CCc1[nH]nc2c1C1(CCOC1C)C(C#N)=C(N)O2 (centres undefined)	-6%
CCOc1ccc(OCC)c(NC(=O)C2CCCN(C(=O)c3ccc(Cl)cc3)C2)c1 (centres undefined)	-12%
Cc1ccc(NC(=O)CCc2nnc3ccc(N4CCOCC4)nn23)cc1C	-11%
Cc1ccccc1Cc1c(C)nc2nc(SCC(=O)NC(C)c3ccccc3)nn2c1C (centres undefined)	1%
O=C(CCN1CCc2ccccc2C(c2ccccc2)C1)c1ccc2c(c1)OCCO2 (centres undefined)	?
Cc1ccc(C(=O)C(OC(=O)c2c(C)cc(=O)oc2C)c2ccccc2)cc1 (centres undefined)	4%

Screening data from PubChem BioAssay.

An excerpt; the hit share may differ from the screen's.
